Lassa entry inh – inhibitors of Lassa virus binding or cell entry; Lassa virus pseudotype entry inhibition, cell reporter; control for the full effect not named in the record; Potency, µM (top dose mostly 37.9 µM), for inactives: at the top dose activity change, negative = inhibition, actives largely listed as inhibitors; hit rate 1.2% among 300,000; AID 540256; active means well fitted inhibition curve with a large enough effect; inconclusive means small, poorly fitted or top-dose-only effect, or effect the other way; inactive means flat fitted curve, though single readings scatter; tested in HEK293 cells; further: on the % scale 0 is the no-effect control and ±100 the full control effect; nearly all actives have a fitted effect of over 50% in size; luciferase read-out
SARS PLpro yeast – SARS-CoV PLP inhibition in yeast. hit rate 0.19% among 330,000. AID 485353. S. cerevisiae expressing SARS-CoV PLpro, growth rescue; control for the full effect not named in the record. Potency, µM (top dose mostly 32.9 µM), inactives show at the highest dose activity, positive = growth rescue; active means well fitted rising curve with a large enough effect; inconclusive means small, poorly fitted or top-dose-only effect; inactive means no such curve, though single readings can be large or run the other way; further: 0% is about no effect; nearly all actives have a fitted effect of over 55% in size; growth read by luminescence after 48 h
Cruzain inh Det – cruzain (T. cruzi) inhibition with detergent | hit rate 0.43% among 200,000 | AID 1478 | purified cruzain, Z-FR-AMC fluorescence, 0.01% Triton | P25779 | Potency, µM, without a hit: max response, negative = inhibition, hits mostly inhibitors;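 further: plate controls were neutral wells for no effect and buffer without enzyme for full effect; nearly all actives have a fitted effect of over 40% in size; top concentration of the series not given in the record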
Target sequence (P25779 123-467 limits assumed): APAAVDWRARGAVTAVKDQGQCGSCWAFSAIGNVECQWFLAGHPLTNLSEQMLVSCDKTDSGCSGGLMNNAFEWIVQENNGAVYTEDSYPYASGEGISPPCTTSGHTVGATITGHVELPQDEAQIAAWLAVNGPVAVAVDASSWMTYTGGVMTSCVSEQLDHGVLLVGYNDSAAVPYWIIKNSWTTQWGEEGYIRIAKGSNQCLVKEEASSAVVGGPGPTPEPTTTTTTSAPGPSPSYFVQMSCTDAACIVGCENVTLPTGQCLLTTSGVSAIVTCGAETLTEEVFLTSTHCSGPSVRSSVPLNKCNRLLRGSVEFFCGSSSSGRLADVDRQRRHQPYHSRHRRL
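15 min RT preincubation of 1.5 nM cruzain with compound, then 2 uM Z-FR-AMC added; kinetic AMC fluorescence, 60 s delta. Triton X-100 0.01%, pH 5.5.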
NS1 inh – inhibitors of influenza NS1 protein function; S. cerevisiae slowed by influenza A NS1, growth recovery by OD600; Potency, µM (top dose mostly 46.1 µM), inactives show top-dose activity, positive = more growth; hit rate 0.4% among 270,000; active means well fitted rising curve with a large enough effect; inconclusive means small, poorly fitted or top-dose-only effect; inactive means no such curve, though single readings can be large or run the other way; further: nearly all actives have a fitted effect of over 50% in size
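Recovery from NS1-induced slow growth read by OD600 in budding yeast switched to galactose assay medium (pH 6.0, -URA) at 1:100 dilution. Compound 23 nl per well; the matching strain lacking NS1 serves as control.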
Cruzain noTriton – inhibitors of Trypanosoma cruzi cruzain without detergent; hit rate 2.3% among 200,000; P25779; purified cruzain, Z-FR-AMC fluorescence, no detergent; Potency, µM, without a hit: max response, negative = inhibition, actives largely listed as inhibitors;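 further: plate controls were enzyme without inhibitor for no effect and buffer without enzyme for full effect; nearly all actives have a fitted effect of over 40% in size; top concentration of the series not given in the record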
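Purified cruzain at 1.5 nM, pre-incubated 15 min with compound at room temperature in 100 mM sodium acetate pH 5.5, 5 mM DTT, 0.00005% Triton X-100. Reaction started with 2 uM Z-FR-AMC; AMC fluorescence increase over 60 s gives rate.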
MARV entry inh – Marburg virus entry inhibition. Potency, µM (top dose mostly 37.8 µM), for the others: at the highest dose activity change, negative = inhibition, most hits filed as inhibitors. hit rate 1.8% among 300,000. Marburg virus pseudotyped entry inhibition, cell reporter; control for the full effect not named in the record; about a third of the inactives were read at about 46 µM; active = well fitted inhibition curve with a large enough effect; inconclusive = small, poorly fitted or top-dose-only effect, or effect the other way; inactive = flat fitted curve, though single readings scatter; tested in HEK293 cells; about a fifth of its hits are not listed in these tables; further: on the % scale 0 is the no-effect control and ±100 the full control effect; luciferase read-out
2A StopGo – lowers the luciferase signal of an FMDV 2A StopGo reporter | hit rate 1.2% among 410,000 | Potency, µM (titrated, usually from 57.9 µM), for inactives: top-dose signal change, negative = less light | AID 1159524 | human cells with a luciferase reporter of 2A StopGo recoding; control for the full effect not named in the record; active = well fitted falling curve with a large enough effect; inconclusive = small, poorly fitted or top-dose-only effect; inactive = no such curve, though single readings can be large or run the other way; tested in HEK293T cells; further: on the % scale 0 is the no-effect control and ±100 the full control effect; nearly all actives have a fitted effect of over 45% in size; luciferase light after 4 h
RE007 growth inh – less growth of the S. pombe RE007 Vpr strain; S. pombe RE007 Vpr strain, BacTiter-Glo ATP luminescence, 24 h; control for the full effect not named in the record; Potency, µM (highest dose often 92.2 µM), inactives show at the highest dose activity change, negative = less growth; hit rate 0.21% among 360,000; AID 651644; active = well fitted falling curve with a large enough effect; inconclusive = small, poorly fitted or top-dose-only effect; inactive = no such curve, though single readings can be large or run the other way;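 further: on the % scale 0 is the no-effect control and ±100 the full control effect; nearly all actives have a fitted effect of over 50% in size; the assay follows cell death caused by Vpr and the record does not say whether a fall means rescue or toxicity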
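Fission yeast strain RE007, carrying one chromosomally integrated HIV-1 vpr copy, was seeded at OD 0.01 in PMG+AL medium with 23 nL pinned compound. After 24 h at 30 °C and 99% humidity, viability was read by BacTiter-Glo luminescence.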
* marks the source's active call; other numbers are inactive results; ? = inconclusive; / = not tested or not shown; & = joins results of further samples; [ ] = dose if it differs, or a comment. Unless noted, the call rests on the fitted dose curve; in most records, active means well fitted curve in the direction sought with a large enough effect; inconclusive means small, poorly fitted or top-dose-only effect, or another doubt; inactive means no such curve, though single readings can be large; an effect the other way counts as inactive or inconclusive. Potency means the concentration at half of the fitted maximal effect.

SMILES	Lassa entry inh	SARS PLpro yeast	Cruzain inh Det	NS1 inh	Cruzain noTriton	MARV entry inh	2A StopGo	RE007 growth inh
c1ccc(-n2ncc3c(N4CCCCC4)ncnc32)cc1	/	-23.4%	5.2%	-109.3%	-8.3%	/	-85.7%	-15.4%
Cc1cc(C)cc(NC(=O)CCCc2nc(-c3ccccc3Cl)no2)c1	-3.8%[46.1 µM]	/	-8.1%	/	-8.7%	4.9%[46.1 µM]	-19.6%	/
COc1ccc(-c2nnc(OCc3nc4ccccc4n3C)c3ccccc23)cc1	5.1%	20.0%	-8.1%	-4.2%	6.5%	-20.1%	-21.1%	-13.3%
COc1cccc(NC(=O)CN(C)S(=O)(=O)c2ccc3c(c2)NC(=O)CS3)c1	/	2.4%	/	10.8%	/	/	?	35.7%
CCOC(=O)CN1C(=O)S/C(=C/c2ccc(O)c([N+](=O)[O-])c2)C1=O	-0.6%	-45.1%	-4.7%	-35.6%	-5.5%	-10.3%	?	9.8%
COCCNc1ccc(N2C(=O)CCCC2=O)cc1[N+](=O)[O-]	?	-0.7%	/	-2.4%	/	?	-7.5%	7.5%
COCCNC(=O)CSc1nnc2[nH]c(=O)cc(C)n12	10.5%[46.1 µM]	/	-0.7%	/	20.5%	/	-15.4%	/
OCCN(C=NC1=NN(c2cccc(C(F)(F)F)c2)CC1)CCO	5.6%	-23.5%	-3.4%	-72.5%	-7.3%	8.8%	21.5%	-7.9%
COc1ccc(/C=N/NC(=O)CN(Cc2ccccc2)S(=O)(=O)c2ccc3c(c2)OCCO3)cc1	?	14.3%	-3.9%	30.0%	-23.7%	?	16.3%	-13.2%
COCCCn1c(-c2ccsc2)nc2c1c(=O)[nH]c(=O)n2Cc1ccccc1	?	2.5%	4.5%	5.2%	?	?	-25.2%	10.8%
CCCc1c(C(=O)NNc2cc(C(F)(F)F)ccc2Cl)cnn1-c1ccccc1	-9.0%	-1.3%	/	2.3%	/	?	-11.5%	6.4%
CCCCSc1nnc(-c2ccc(NC(C)=O)cc2)n1C	0.9%	18.0%	-1.1%	3.8%	5.3%	9.5%&9.5%	7.2%	24.6%
O=C1NC(c2ccccc2)=C(c2ccc3ccccc3n2)C(c2ccc(F)cc2)N1 (stereo not given)	?	-40.0%	-8.5%	5.0%	-5.3%	-9.0%	-29.7%	0.4%
CSc1ccc(/C=C(/NC(=O)c2ccco2)C(=O)N2CCOCC2)cc1	10.1%	6.0%	/	18.4%	/	15.1%	13.3%	5.1%
Cc1ccc(-n2ncc3c(=O)[nH]c(SCC(=O)N4CCCc5ccccc54)nc32)cc1	-11.2%	-0.7%	-2.0%	-29.7%	-13.7%	?	-19.7%	-9.6%
CCc1ccc(Cn2nnc(C(=O)NCc3ccccc3OC)c2N)cc1	/	9.6%	4.6%	3.1%	-6.9%	/	-3.6%	5.2%
Cc1cc(C)cc(NC(=O)c2sc3nc[nH]c(=O)c3c2C)c1	18.2%[46.1 µM]	/	-2.6%	/	1.3%	/	-19.0%	/
CCS(=O)(=O)N1CCC(C(=O)NCc2cc(OC)ccc2OC)CC1	2.0%	4.0%	-0.7%	-2.0%	6.5%	3.2%	/	3.9%
CCCCCN(C(=O)CCC(=O)OC(C)C(=O)NC1CCCCC1)c1c(N)n(CCCC)c(=O)[nH]c1=O (stereo not given)	12.7%	2.8%	/	/	/	1.5%	-27.8%	-10.3%
Cc1ccc2c(COC(=O)c3c(C)noc3C)cc(=O)oc2c1	8.9%	-0.2%	/	/	/	5.0%	13.3%	-7.2%
CCCn1nc(C(=O)NNC(=O)CSC(C)C(=O)Nc2cc(C)on2)c2ccccc2c1=O (stereo not given)	-13.5%	-2.2%	/	8.6%	/	-3.5%	-3.2%	4.4%
Cc1cc(=O)oc2cc(OCC(=O)N3CCC(C(N)=O)CC3)ccc12	/	-3.3%	/	-8.2%	/	/	-10.3%	-12.2%
CCOC(=O)N1CCN(c2c(N3CCN(c4cccc(C(F)(F)F)c4)CC3)c(=O)c2=O)CC1	-1.4%	2.8%	-1.1%	-2.1%	-1.1%	0.6%&-8.3%	7.3%	5.9%
CC(=O)C1=C(O)C(=O)N(c2cccnc2)C1c1ccc(Cl)cc1 (stereo not given)	?	9.5%	0.2%	-3.2%	-1.8%	18.3%[46.1 µM]	-20.2%	4.7%
O=C(CCCn1cnc([N+](=O)[O-])n1)Nc1ccc(Cl)c(Cl)c1	-8.3%	-1.3%	-4.3%	12.1%	-3.0%	?	/	-15.5%

Continued, overlapping the part above by 2 compounds.
SMILES	Lassa entry inh	SARS PLpro yeast	Cruzain inh Det	NS1 inh	Cruzain noTriton	MARV entry inh	2A StopGo	RE007 growth inh
CC(=O)C1=C(O)C(=O)N(c2cccnc2)C1c1ccc(Cl)cc1 (stereo not given)	?	9.5%	0.2%	-3.2%	-1.8%	18.3%[46.1 µM]	-20.2%	4.7%
O=C(CCCn1cnc([N+](=O)[O-])n1)Nc1ccc(Cl)c(Cl)c1	-8.3%	-1.3%	-4.3%	12.1%	-3.0%	?	/	-15.5%
Fc1cccc(Cl)c1CNCc1ccccc1Cl	9.0%	4.6%	2.9%	0.2%	-5.6%	16.3%	8.0%	-14.2%
Cc1ccc(CNC(=O)c2cc(C)nc3c2c(C)nn3-c2ccc(C)cc2)cc1	4.1%[46.1 µM]	/	-0.3%	/	-2.7%	/	1.5%	/
Nc1ncnc2nc(SCC(=O)Nc3cccc(C(F)(F)F)c3)[nH]c12	-13.1%[46.1 µM]	1.4%	/	0.6%	/	-1.0%[46.1 µM]	50.6%[activator]	-0.5%
Cc1cccc(CCNC(=O)CN(C)S(=O)(=O)c2ccc3c(c2)c(=O)n(C)c(=O)n3C)c1	/	3.4%	2.7%	-24.2%	29.6%	-4.2%	-18.8%	-5.7%
CCCNC(=O)NC(=O)COC(=O)CNS(=O)(=O)/C=C/c1ccccc1	-12.8%	2.6%	/	/	/	-8.0%	-8.4%	6.6%
O=C1CN(C(=O)COC(=O)CNC(=O)c2ccccc2)c2ccccc2N1	9.6%	15.4%	?	5.9%	15.8µM*	0.0%	-14.8%	12.3%
CC(=O)Nc1ccc(C2(c3ccc(NC(C)=O)cc3)C(=O)Nc3ccccc32)cc1	-13.7%[46.1 µM]	5.4%	/	/	/	-8.8%[46.1 µM]	?	6.7%
COC1=CC=C2[C@H]3Cc4ccc(OC)c5c4[C@@]2(CCN3C)[C@H]1O5	7.2%	-0.5%	0.7%	-0.3%	-4.0%	1.2%&1.2%	-4.8%&-2.8%	0.0%
COc1cccc(CCc2nnc(CCC(=O)NC(C)Cc3cccs3)o2)c1 (stereo not given)	/	2.7%	/	-3.7%	/	/	-12.7%	-1.8%
COCCCNC(=O)CCc1c(C)c2cc3c(C)coc3cc2oc1=O	4.6%[46.1 µM]	-0.2%	/	-1.8%	/	-4.3%[46.1 µM]	-10.2%	9.8%
NS(=O)(=O)c1ccc(Nc2nc3ccccc3nc2NS(=O)(=O)c2cccc([N+](=O)[O-])c2)cc1	12.7%	1.9%	/	-16.8%	/	2.3%[46.1 µM]	13.7%	9.8%
c1ccc(-c2nnc(-c3ccncc3)nc2-c2ccccc2)cc1	-17.6%	-2.1%	/	-4.1%	/	-5.9%[46.1 µM]	-16.1%	-13.3%
O=C(Nc1ccc(Cl)cc1)NN1CCCCCC1	-15.4%	/	/	/	/	4.6%	39.6%[activator]	-9.3%
CCOC(=O)c1ccc(NC(=O)Nc2ccc3c(c2)OCCO3)cc1	-4.1%	4.0%	-11.7%	-41.3%	0.5%	0.2%	?	14.0%
CN(C)C(=O)Cn1c(=O)n(S(=O)(=O)c2ccccc2)c2ccccc21	-7.5%[46.1 µM]	-1.9%	/	2.0%	/	0.5%[46.1 µM]	28.2%	-3.4%
CN(C)C(CNS(=O)(=O)c1ccc(F)cc1)c1cccnc1 (stereo not given)	/	3.2%	-4.2%	5.4%	0.9%	/	-14.9%	8.2%
CCCC(=O)c1c[nH]c(C(=O)N2CCOCC2)c1	/	-0.5%	/	0.4%	/	9.2%[46.1 µM]	-4.0%	2.5%
O=S(=O)(c1ccc(F)cc1)N1CCN(Cc2ccccc2C(F)(F)F)CC1	?	-5.4%	-7.3%	-7.3%	-9.1%	?	-22.8%	7.3%
O=C(Nc1cccnc1)OC1CCCC1	7.4%	0.2%	/	/	/	?	20.0%	2.4%
Cc1cccc(-n2c(C)cc(/C=C3\NC(=O)NC3=O)c2C)c1	?	-0.2%	/	5.6%	/	?	35.7%[activator]	-0.5%
CC(NCc1ccccc1)C1COc2ccccc2O1 (stereo not given)	-14.3%	4.3%	-5.1%	-5.4%	0.9%	-9.3%	-3.5%	-8.6%
O=C(Nc1cccc(F)c1)c1c(O)c2ccccc2[nH]c1=O	?	4.9%	/	20.3%	/	0.2%	59.1%[activator]	-10.6%
CCN(C(=O)c1coc(=O)c2ccccc12)c1ccccc1C	0.6%[46.1 µM]	/	1.3%	/	-4.2%	?	1.0%	/
Cn1nnc2c(NCc3ccco3)nccc21	9.3%	-3.0%	1.4%	-9.2%	1.8%	1.4%	4.1%	9.1%
CC(C)CC(C(=O)Nc1oc(-c2ccccc2)c(-c2ccccc2)c1C#N)N1C(=O)c2ccccc2C1=O (stereo not given)	-1.9%	-10.5%	-3.4%	12.1%	3.16µM*	-0.2%[46.1 µM]	?	-0.3%
Cn1c(=O)oc2cc(S(=O)(=O)N3CCCC(C(=O)NC4CCCc5ccccc54)C3)ccc21 (stereo not given)	/	2.2%	3.9%	5.6%	8.8%	/	-24.6%	-16.2%
CC1Cc2ccccc2N1C(=O)COC(=O)c1ccc(Br)o1 (stereo not given)	-0.5%[46.1 µM]	-1.3%	/	-10.1%	/	1.3%[46.1 µM]	4.6%	-3.5%
CCn1cc(C(=O)N2CC(C)CC(C)C2)c(=O)c2cc(S(=O)(=O)N3CCOCC3)ccc21 (stereo not given)	-11.5%	4.6%	4.0%	-10.2%	21.6%	0.4%&1.8%	65.2%[activator]	15.5%
O=C(c1ccsc1)N1CCN(C(=O)c2cccs2)CC1	20.3%	-0.8%	7.9%	4.7%	-4.0%	5.0%	-19.0%	-23.9%

High-throughput results (PubChem BioAssay)

No enrichment for hits; 4.8% or so of the library scored in one or more.
